Compound activity (PubChem BioAssay)
rRNA inh HTS = reduced GFP signal of wild-type E. coli, primary screen, bacterial rRNA inhibitor project, GFP/RFP fluorescence, OD600, single point. E. coli WT GFP vs humanized-ribosome RFP mutants, 24 h; active compounds read low; DMSO median 0, no signal -100. GFP signal change (wild-type ribosome), % (no concentration beside the values). 350,000 tested, 1.6% active. AID 720706, 2013;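 active = significant combined selectivity score with lowered wild-type GFP, culture density cut under 30%, mutant RFP and density less affected; inactive = any of these conditions unmet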; also: one replicate is shown; some compounds called inactive have numbers as strong as hits
rRNA inh HTS OD600 = further read-out of rRNA inh HTS, marked with its call; OD600 change, %; measured here: OD600 growth;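 optical density of the mix in the first replicate; 0 = DMSO median and -100 = no signal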
rRNA inh HTS RFP = second read-out of rRNA inh HTS, no call of its own (marks repeat the call); RFP signal change, %; measured here: RFP humanized mutant strains;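 first replicate; 0 = DMSO median and -100 = no signal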
* hit, by the source's call.

rRNA inh HTS	rRNA inh HTS OD600	structure	rRNA inh HTS RFP
3	2	COCC(=O)N1C[C@@H](C)[C@H](OC)CN(C)C(=O)c2ccc(NC(=O)c3cnccn3)cc2OC[C@H]1C	0.6
5	22	CCCNC(=O)N1CC2(C1)[C@@H](c1ccccc1)[C@H](CO)N2CC1CCOCC1	-0.6
0	3	CCC(=O)N1CC(=O)N2[C@H](CO)[C@@H](c3ccc(C#CC(C)C)cc3)[C@@H]2C1	-5.8
-3	-10	C[C@H]1CN([C@@H](C)CO)S(=O)(=O)c2ccc(C3=CCCC3)cc2O[C@@H]1CN(C)C(=O)C1CC1	0.9
4	-6	COc1cc(CN2CC3(CN(S(=O)(=O)c4cccs4)C3)c3c(n(C)c4cc(OC)ccc34)[C@H]2CO)cc(OC)c1	-2.8
-5	-3	O=C(NC[C@H]1N[C@@H](CO)[C@H]1c1ccc(-c2ccc(F)cc2)cc1)c1ccccn1	14
3	9	C[C@H](CO)N1C[C@H](C)[C@@H](CN(C)Cc2ccc(-c3ccccc3)cc2)Oc2c(NC(=O)C3CCCCC3)cccc2C1=O	-0.3
0	-4	CCC(=O)N1[C@H](CO)[C@@H](c2ccc(-c3ccc(F)cc3)cc2)[C@@H]1CNC(C)=O	4.6
-2	-5	CCC(=O)NC[C@@H]1[C@@H](c2ccc(C3=CCCC3)cc2)[C@H](CO)N1C(=O)C1CC1	0.3
1	2	CO[C@@H]1CN(C)C(=O)c2ccc(NC(=O)c3ccccc3F)cc2OC[C@H](C)N(C)C[C@@H]1C	0.1
4	-1	CCCC(=O)Nc1ccc2c(c1)OC[C@@H](C)N(C(=O)c1cccnc1)C[C@H](C)[C@@H](OC)CN(C)C2=O	-0.5
-3	-10	COc1ccc2c3c(n(C)c2c1)[C@@H](CO)N(CC1CC1)CC31CCN(S(=O)(=O)c2cccs2)CC1	3.0
-5	-13	COc1ccc2c3c([nH]c2c1)[C@@H](CO)N(C(=O)c1ccccc1)CC31CCN(C(=O)Nc2cccc(F)c2)CC1	1.1
2	8	CC(C)NC(=O)N(C)C[C@H]1Oc2ccc(N)cc2C(=O)N(C)C[C@H]1C	0.3
-3	3	Cc1noc(C)c1S(=O)(=O)Nc1ccc2c(c1)C(=O)N([C@H](C)CO)C[C@H](C)[C@@H](CN(C)C(=O)Nc1ccc(F)cc1)O2	0.1
-1	-7	CCCN1C[C@H](C)[C@H](OC)CN(C)C(=O)c2ccc(NC(=O)c3ccc(F)cc3)cc2OC[C@@H]1C	-1.2
-3	-1	C[C@@H]1CN([C@H](C)CO)C(=O)Cc2cc(NC(=O)CCCCCC(=O)Nc3ccccc3N)ccc2O[C@@H]1CN(C)S(=O)(=O)c1ccc(Cl)cc1	0.8
0	-3	O=C1N[C@H](c2ccccc2)COCc2cnnn2CC[C@@H]1Cc1ccc(C(F)(F)F)cc1	-0.7
-2	1	COc1ccc2c3c(n(C)c2c1)[C@H](CO)NCC31CN(Cc2cc(F)ccc2F)C1	1.5
2	15	O=C(C1CCC1)N1CCCCN2[C@@H](CO)[C@@H](c3ccc(C#CC4(O)CCCC4)cc3)[C@@H]2C1	-2.9
3	25	COc1ccc(C#Cc2ccc3c(c2)[C@H]2[C@H](CCN2C(=O)Nc2ccc(C(F)(F)F)cc2)[C@H](CO)N3C)cc1	1.4
2	9	O=C(C[C@@H]1C[C@@H]2c3cc(NC(=O)Cc4ccncc4)ccc3O[C@@H]2[C@@H](CO)O1)NCc1ccccn1	2.6
-14	-30	CC(C)CC#Cc1ccc([C@@H]2[C@H]3CN(C(=O)c4ccc5c(c4)OCO5)CC(=O)N3[C@H]2CO)cc1	22
1	8	CO[C@H]1CN(C)C(=O)c2ccc(NC(=O)NC(C)C)cc2OC[C@H](C)N(C(=O)NC(C)C)C[C@@H]1C	-1.6
-5	-21	COc1ccc2c3c([nH]c2c1)[C@@H](CO)N(C(=O)c1cccc(F)c1)CC31CN(S(=O)(=O)c2cccs2)C1	3.4
-8	-29	O=C1N[C@H](c2ccccc2)COCc2cnnn2CC[C@H]1Cc1ccc(-c2ccccc2)cc1	5.5
-3	-2	CO[C@H]1CN(C)C(=O)c2ccc(NC(=O)Nc3cccc(F)c3)cc2OC[C@@H](C)N(C(C)=O)C[C@@H]1C	2.2
-1	11	C[C@@H]1CN([C@H](C)CO)C(=O)c2cccc(NC(=O)C3CCCCC3)c2O[C@H]1CN(C)S(=O)(=O)c1cn(C)cn1	1.9
-12	-25	COc1ccccc1S(=O)(=O)N1CC[C@H]2[C@H](CO)Nc3ccc(-c4cccc(C#N)c4)cc3[C@H]21	9.4
3	3	C[C@@H]1CCCCO[C@@H](CN(C)C(=O)CCC(F)(F)F)[C@H](C)CN([C@@H](C)CO)C(=O)c2cc(NS(C)(=O)=O)ccc2O1	-0.4

Record cards, from the list above.
Entry for COc1ccccc1S(=O)(=O)N1CC[C@H]2[C@H](CO)Nc3ccc(-c4cccc(C#N)c4)cc3[C@H]21 : rRNA inh HTS = -12; rRNA inh HTS OD600 = -25; rRNA inh HTS RFP = 9.4
Entry for C[C@@H]1CN([C@H](C)CO)C(=O)c2cccc(NC(=O)C3CCCCC3)c2O[C@H]1CN(C)S(=O)(=O)c1cn(C)cn1 : rRNA inh HTS = -1; rRNA inh HTS OD600 = 11; rRNA inh HTS RFP = 1.9
Entry for O=C(C[C@@H]1C[C@@H]2c3cc(NC(=O)Cc4ccncc4)ccc3O[C@@H]2[C@@H](CO)O1)NCc1ccccn1 : rRNA inh HTS = 2; rRNA inh HTS OD600 = 9; rRNA inh HTS RFP = 2.6

(next part)
rRNA inh HTS	rRNA inh HTS OD600	structure	rRNA inh HTS RFP
-2	1	CCCC(=O)N1CC2(CCN(C)CC2)c2c(n(C)c3cc(OC)ccc23)[C@H]1CO	1.2
0	-4	COc1cccc(-c2ccc3c(c2)[C@H]2[C@H](CCN2S(=O)(=O)c2ccccc2F)[C@H](CO)N3C)c1	-0.5
-4	3	COc1cccc(S(=O)(=O)Nc2ccc3c(c2)OC[C@@H](C)N(C(=O)Cc2cccnc2)C[C@@H](C)[C@@H](OC)CN(C)C3=O)c1	-2.3
3	-10	COc1ccc(-c2ccc([C@H]3[C@H]4CN(C(=O)NC(C)C)CCCCN4[C@H]3CO)cc2)cc1	0.1
-6	-19	CCC(=O)N1CC2(C1)CN(Cc1cccc(Cl)c1)[C@H](CO)c1[nH]c3cc(OC)ccc3c12	-0.2
-2	-1	CO[C@H]1CN(C)C(=O)c2ccc(NS(=O)(=O)c3ccc(C)cc3)cc2OC[C@H](C)N(C(=O)NC(C)C)C[C@H]1C	-0.4
3	8	COc1ccc(S(=O)(=O)Nc2cccc3c2O[C@@H](CN(C)Cc2ccc(C(=O)O)cc2)[C@H](C)CN([C@@H](C)CO)C3=O)cc1	-2.5
-7	-6	C[C@H]1CC=CC[C@H](c2ccccc2)NC(=O)[C@H](Cc2ccccc2)N(C)C(=O)c2ccccc2O1 (mixture of isomers)	-0.6
5	0	CC[C@@H]1C/C=C\CCNC(=O)C[C@H](c2ccccc2)C(=O)N1	-0.9
-1	9	COc1ccc(S(=O)(=O)N(C)C[C@H]2Oc3ccc(NC(=O)Nc4cccc5ccccc45)cc3C(=O)N([C@@H](C)CO)C[C@@H]2C)cc1	0.2

A second format for part of the listing above:
Each structure is followed by: rRNA inh HTS, rRNA inh HTS OD600, rRNA inh HTS RFP
> CC[C@@H]1C/C=C\CCNC(=O)C[C@H](c2ccccc2)C(=O)N1
→ 5, 0, -0.9
> COc1ccc(S(=O)(=O)N(C)C[C@H]2Oc3ccc(NC(=O)Nc4cccc5ccccc45)cc3C(=O)N([C@@H](C)CO)C[C@@H]2C)cc1
→ -1, 9, 0.2

The results go on:
rRNA inh HTS	rRNA inh HTS OD600	structure	rRNA inh HTS RFP
-3	0	COCC(=O)N1CCCCN2[C@H](CO)[C@H](c3ccc(-c4cccc(C)c4)cc3)[C@H]2C1	-6.5
3	13	COc1ccc(C#Cc2ccc3c(c2)[C@@H]2[C@@H](CCN2C(=O)c2ccccc2F)[C@H](CO)N3)cc1	-2.1
3	-2	CO[C@@H]1CN(C)C(=O)c2cc(NC(=O)c3ccc(F)cc3)ccc2OC[C@@H](C)NC[C@@H]1C	0.5
3	2	CC(C)NC(=O)N(C)C[C@@H]1Oc2ccc(NS(=O)(=O)c3ccccc3)cc2CC(=O)N([C@@H](C)CO)C[C@@H]1C	-1.5
5	23	C[C@H](CO)N1C[C@H](C)[C@@H](CN(C)Cc2ccc(-c3ccccc3)cc2)Oc2ccc(NC(=O)Nc3cccc4ccccc34)cc2CC1=O	0.6
-8	-6	COCC(=O)Nc1ccc2c(c1)OC[C@H](C)N(CCc1ccccc1)C[C@H](C)[C@@H](OC)CN(C)C2=O	-3.8
-2	3	C[C@H]1CN([C@@H](C)CO)S(=O)(=O)c2ccc(Br)cc2O[C@H]1CN(C)C(=O)C1CCCCC1	-7.2
-1	11	Cc1ccccc1-c1cnc2c(c1)C(=O)N([C@@H](C)CO)C[C@@H](C)[C@H](CN(C)C(=O)CC1CC1)O2	-0.5
-13	-31	C[C@H](CO)N1C[C@H](C)[C@@H](CN(C)Cc2ccc3c(c2)OCO3)Oc2c(NC(=O)CCC(F)(F)F)cccc2C1=O	2.0
0	1	C[C@@H]1CN([C@H](C)CO)C(=O)c2ccccc2-c2ccccc2CO[C@@H]1CN(C)S(=O)(=O)Cc1ccccc1	1.5
3	11	O=C1CCCCn2nncc2COC[C@@H](Cc2ccccc2)N1	-2.0
2	1	CC(C)NC(=O)Nc1ccc2c(c1)CC(=O)N(C)C[C@@H](C)[C@@H](CN(C)C(=O)NC(C)C)O2	-0.3
-10	-10	C[C@@H]1CN([C@H](C)CO)C(=O)c2cc(NC(=O)NC3CCCCC3)ccc2O[C@@H]1CN(C)Cc1ccc(C(=O)Nc2ccccc2N)cc1	1.2
1	3	Cc1noc(C)c1NC(=O)N(C)C[C@@H]1Oc2ccc(NS(=O)(=O)c3c(C)noc3C)cc2C(=O)N([C@H](C)CO)C[C@@H]1C	1.7
2	6	CCS(=O)(=O)Nc1ccc2c(c1)C(=O)N(C)C[C@H](OC)[C@@H](C)CN(CC1CCCC1)[C@H](C)CO2	-2.0
-2	-5	CCCN1C[C@H](C)[C@@H](OC)CN(C)C(=O)c2ccc(NC(=O)c3ccc(F)cc3)cc2OC[C@H]1C	-0.9
-8	-15	O=S(=O)(c1ccccc1)N1CC2(C1)[C@@H](c1ccccc1)[C@@H](CO)N2CC1CC1	2.2
2	16	C/C=C/c1cnc2c(c1)C(=O)N([C@@H](C)CO)C[C@H](C)[C@@H](CN(C)Cc1ccccc1F)O2	-2.4
-2	-6	CCCC(=O)Nc1ccc2c(c1)C(=O)N(C)C[C@@H](OC)[C@@H](C)CN(Cc1ccc(F)cc1)[C@@H](C)CO2	-2.5
2	3	CN(C)CC(=O)N1CCCCN2[C@@H](CO)[C@@H](c3ccc(-c4cncnc4)cc3)[C@@H]2C1	-1.9
3	4	C[C@@H]1COCc2cn(nn2)CC[C@H](Cc2ccccc2)C(=O)N1	-2.2
-6	-9	CC(C)[C@H]1C(=O)N[C@H](c2ccc(F)cc2)CC=CC[C@@H](C)Oc2ccccc2C(=O)N1C (mixture of isomers)	-1.4
-6	-8	CO[C@@H]1CN(C)C(=O)c2cc(NC(=O)Nc3ccccc3Cl)ccc2OC[C@@H](C)N(S(C)(=O)=O)C[C@H]1C	0.8
-1	2	CO[C@@H]1CN(C)C(=O)c2ccc(NC(C)=O)cc2OC[C@@H](C)N(Cc2ccncc2)C[C@@H]1C	0.8
1	1	CC(C)NC(=O)Nc1cccc2c1O[C@H](CN(C)C(=O)OC(C)(C)C)[C@H](C)CN(C)C2=O	0.8
2	-1	C[C@@H]1CN([C@@H](C)CO)C(=O)c2cc(NC(=O)C3CCCCC3)ccc2O[C@@H](C)CCCCO[C@H]1CN(C)C	-0.9
1	4	CO[C@H]1CN(C)C(=O)c2ccc(NC(=O)NC(C)C)cc2OC[C@H](C)N(Cc2cncnc2)C[C@H]1C	-3.4
0	3	COc1ccc(NC(=O)Nc2ccc3c(c2)C(=O)N(C)C[C@@H](OC)[C@@H](C)CN[C@H](C)CO3)cc1	-1.3
0	-23	C[C@H](CO)N1C[C@H](C)[C@H](CN(C)Cc2ccc(-c3ccccc3)cc2)Oc2ccc(NC(=O)Cc3ccccc3)cc2C1=O	12
-10	-20	C[C@H](CO)N1C[C@H](C)[C@@H](CN(C)Cc2ccccn2)Oc2cc(-c3ccc(C#N)cc3)ccc2S1(=O)=O	-1.2
3	-2	N#C[C@H]1[C@H](c2ccccc2-c2cccc(F)c2)[C@@H](CO)N1C(=O)C1CC1	1.1
-60	-74	O=C(c1ccccc1F)N1C[C@@H]2[C@H](c3ccccc31)[C@H](CO)N2CC1CCCCC1	-19

Ordered by the number under rRNA inh HTS (highest first): some entries from above.
mol | rRNA inh HTS
CCS(=O)(=O)Nc1ccc2c(c1)C(=O)N(C)C[C@H](OC)[C@@H](C)CN(CC1CCCC1)[C@H](C)CO2 | 2
Cc1noc(C)c1NC(=O)N(C)C[C@@H]1Oc2ccc(NS(=O)(=O)c3c(C)noc3C)cc2C(=O)N([C@H](C)CO)C[C@@H]1C | 1
C[C@@H]1CN([C@H](C)CO)C(=O)c2ccccc2-c2ccccc2CO[C@@H]1CN(C)S(=O)(=O)Cc1ccccc1 | 0
CCCC(=O)Nc1ccc2c(c1)C(=O)N(C)C[C@@H](OC)[C@@H](C)CN(Cc1ccc(F)cc1)[C@@H](C)CO2 | -2

A portion of the library (hit frequency here may not be typical).
